# rRNA inh HTS = selective bacterial rRNA inhibition in E. coli. E. coli WT GFP vs humanized-ribosome RFP mutants, fluorescence, 24 h; active compounds read low; DMSO median 0, no signal -100. GFP signal change (wild-type ribosome), % (test concentration not listed). hit rate 1.6% among 350,000. AID 720706;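 active means significant combined selectivity score with lowered wild-type GFP, culture density cut under 30%, mutant RFP and density less affected; inactive means any of these conditions unmet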; further: one replicate is shown; some compounds called inactive have numbers as strong as hits
# HNF4A DNA FP = change in binding of human HNF4 alpha to DNA; P41235; HNF4a-FITC DNA binding, fluorescence polarization, 1 h; activity change, % at 10 µM; hit rate 0.3% among 360,000; AID 1224865; in the data active means activity change above about 30%, passing the limit was not always enough;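 further: controls were the assay level and a saturating level of protein; the project sought stronger binding though the title names inhibitors; some compounds called inactive have numbers as strong as hits; positive values seem to mean higher polarization but the record does not say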
# B2AR ag = agonists of human beta-2 adrenergic receptor inducing internalization. P07550. Am2.2-beta2AR cells, FAP receptor internalization, flow cytometry; reference of the scale not given here. response, % (concentration not given with the values). hit rate 0.43% among 340,000. AID 504454;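 active means response above a set limit, near 3 SD of response in nonfluorescent compounds, cut at about 42% in these data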;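 further: stock transfer was 100 nL into about 11 µL; a reference agonist was the positive control; negative values mostly stem from fluorescent compounds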
# Target sequence (P07550 whole entry, looked up): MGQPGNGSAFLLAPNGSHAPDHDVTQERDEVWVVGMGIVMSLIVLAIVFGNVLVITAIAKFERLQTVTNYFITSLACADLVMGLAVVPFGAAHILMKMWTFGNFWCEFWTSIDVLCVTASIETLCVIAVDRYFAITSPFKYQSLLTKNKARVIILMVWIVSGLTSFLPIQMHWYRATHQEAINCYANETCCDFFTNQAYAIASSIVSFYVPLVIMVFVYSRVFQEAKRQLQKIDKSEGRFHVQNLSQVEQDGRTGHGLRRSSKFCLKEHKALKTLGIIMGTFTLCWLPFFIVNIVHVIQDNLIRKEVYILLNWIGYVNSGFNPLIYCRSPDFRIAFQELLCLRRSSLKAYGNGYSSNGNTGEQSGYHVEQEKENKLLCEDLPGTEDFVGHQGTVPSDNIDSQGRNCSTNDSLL
# ALR inh = human ALR oxidase inhibition via reduced H2O2 | P55789 | purified ALR, DTT oxidation, H2O2 HRP-luminol luminescence | inhibition, % (no concentration beside the values) | hit rate 3.8% among 290,000 | AID 485317;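 active means mean and each replicate at 75% or more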;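 further: stock transfer was 7.5 nL into about 7.5 µL; 0% = neutral wells and 100% = wells with inactivated enzyme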
# Target sequence (P55789 whole entry, looked up): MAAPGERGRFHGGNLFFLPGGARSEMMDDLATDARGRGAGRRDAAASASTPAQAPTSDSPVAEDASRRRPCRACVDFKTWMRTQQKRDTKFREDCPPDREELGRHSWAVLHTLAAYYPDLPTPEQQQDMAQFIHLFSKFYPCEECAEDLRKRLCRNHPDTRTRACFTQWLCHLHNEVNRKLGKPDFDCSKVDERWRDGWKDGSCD
# UCH37 inh = blocks the human deubiquitinase UCH37. purified proteasome/UCH37, Ub-AMC cleavage fluorescence. inhibition, % (concentration not given with the values). hit rate 0.33% among 330,000. AID 588478;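 active means mean of two replicates above 20%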;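 further: 0% = compound-free wells with enzyme and 100% = wells lacking proteasome; stock transfer was 100 nL into about 20 µL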
# Target sequence (Q9Y5K5 whole entry, looked up): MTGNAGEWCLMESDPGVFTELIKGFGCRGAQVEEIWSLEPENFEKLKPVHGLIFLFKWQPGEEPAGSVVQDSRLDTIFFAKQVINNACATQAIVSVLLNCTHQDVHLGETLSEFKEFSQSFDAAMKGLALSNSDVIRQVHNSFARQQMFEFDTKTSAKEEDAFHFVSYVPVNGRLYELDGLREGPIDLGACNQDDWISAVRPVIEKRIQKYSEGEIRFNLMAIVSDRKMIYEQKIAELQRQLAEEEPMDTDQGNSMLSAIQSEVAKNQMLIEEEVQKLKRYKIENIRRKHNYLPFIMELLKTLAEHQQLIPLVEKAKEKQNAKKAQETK
#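 assay system = human UCH37 enzyme supplied as purified proteasome complex | amount = proteasome at 0.15 nM in the dispensed enzyme solution | schedule = 30 min compound-proteasome preincubation then 25 min substrate reaction, room temperature | measured by = fluorescence, ex 355 nm, em 460 nm | benchmarks = no-proteasome wells (full inhibition) and compound-free wells (no inhibition)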
# Ecoli growth = blocks Escherichia coli growth; OD600, 23 h; active compounds read low; OD600 absorbance (no concentration beside the values); hit rate 0.21% among 330,000; AID 1053175;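 active means OD600 absorbance below the run mean of sample wells minus 3.6 SD, in any replicate, cut at about 0.56 in these data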;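 further: stock transfer was 300 nL into about 60 µL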
# FGF22 binding = shifts melting point of recombinant human FGF22; Q9HCT0; recombinant FGF22 thermal shift, SYPRO orange fluorescence; percent of sucrose octasulfate shift, DMSO zero; calls only at 9.99 µM; hit rate 1.5% among 340,000;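 active means melting point raised past a set limit in the mean and every replicate; three in four hits are not shown here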
# rRNA inh HTS OD600 = further read-out of rRNA inh HTS, marked with its call; OD600 change, %; measured here: OD600 growth;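 optical density of the mix in the first replicate; 0 = DMSO median and -100 = no signal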
# rRNA inh HTS RFP = further read-out of rRNA inh HTS, marked with its call; RFP signal change, %; measured here: RFP humanized mutant strains;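 first replicate; 0 = DMSO median and -100 = no signal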
# Active calls of the source: *; i = inactive; x = no result given; & = joins results of further samples.
SMILES,rRNA inh HTS,rRNA inh HTS OD600,rRNA inh HTS RFP,HNF4A DNA FP,B2AR ag,ALR inh,UCH37 inh,Ecoli growth,FGF22 binding
C[C@H](NC(=O)c1nc[nH]c1C(=O)N[C@@H](CCCCN)C(=O)OC(C)(C)C)C(=O)OCc1ccccc1,3,4,6.1,2.6,-3,7,2.0,x,i
COc1ccc(-n2nc(C(=O)NCC(=O)N3CCN(Cc4ccccc4)CC3)c3ccccc3c2=O)cc1,-4,-13,3.5,3.0,3,-1,x,x,x
CCCS(=O)(=O)NC(=O)C1(C)CCN(C(=O)Cc2cccc(OC)c2)C1 (stereo unspecified),4,5,-0.3,-2.8,x,x,x,x,i
O=c1[nH]c(CSc2ccccn2)nc2c1cnn2-c1ccccc1,x,x,x,-1.1,-1,-5,4.4,0.73,x
COC(=O)c1cn(C)c2ccc(S(=O)(=O)N(C)C3CCCCC3)cc2c1=O,-2,-12,3.6,1.8,x,x,x,x,i
CC(C)(C)C1CCc2c(sc3nc(SCC(N)=O)nc(N)c23)C1 (stereo unspecified),x,x,x,5.0,13,-3,-1.2,0.69,x
CCN(CC)C(=O)Cn1c(=O)n(C)c2ccccc21,x,x,x,0.5,-12,-2,-1.2,0.68,x
CC1CCCC(C)N1C(=O)CSc1nccc(=O)[nH]1 (stereo unspecified),29,19,4.1,0.1,1,-13,2.3,0.63,i
C[C@H](CO)N1C[C@H](C)[C@@H](CN(C)S(=O)(=O)c2ccc(F)cc2)Oc2ccc(NC(=O)C3CC3)cc2C1=O,1&2,7&9,-0.8&-5.0,0.6,-4,1,-3.6,0.73,i
c1ccc(-c2cc3nccc(-c4ccccn4)n3n2)cc1,-30,-34,-8.1,2.5,-11,-15,0.1,0.66,i
Cc1[nH]c2ccccc2c1C(=O)/C=C/c1ccccc1,x,x,x,-3.5,-1,5,4.1,0.74,x
COc1ccc(OCC(=O)Nc2ccc3c(c2)n(C)c(=O)n3C)cc1,-9,-10,-0.1,-0.8,-7,-4,2.2,0.65,i
C=CCCC(=O)N1C[C@H]2CON(C)[C@H]2C[C@H]1c1cccc(N2CCOCC2)c1,10,13,-0.4,-6.1,x,x,x,x,i
Cc1cc(OCCOCCN(C)CCO)cc(C)c1Cl,x,x,x,-0.8,5,-7,-1.1,0.67,x
CCCCN(C=O)c1c(CC)nc2c(OCc3ccc(Cl)cc3)cccn12,-18,-43,-6.4,4.8,x,x,x,x,i
COCc1nnc(N)s1,x,x,x,6.3,7,3,-0.3,0.74,x
O=C(Cn1c2ccccc2c(=O)c2ccccc21)Nc1ccccc1F,x,x,x,7.2,-6,-14,-160,0.71,i
N#Cc1ccccc1NC(=O)CC1CCCCC1,x,x,x,-0.8,4,x,4.7,0.78,x
COc1ccccc1C(=O)NCc1ccncc1,x,x,x,-2.0,12,-6,-2.4,0.72,x
O=C(Nc1ccc(Cl)cc1C(=O)N1CCOCC1)c1cccc([N+](=O)[O-])c1,11,1,1.5,x,x,-7,1.5,0.67,i
COc1ccc(C2=NOC(Cn3nc(C(=O)NCc4ccccc4OC)cc3-c3ccccc3)C2)cc1 (stereo unspecified),0,2,-0.9,-1.8,6,-5,0.5,0.71,i
CCCc1nc2sc3c(=O)n(N)cnc3c2c2c1CCCC2,-2,7,-0.2,1.6,-15,-7,-4.5,0.71,i
CN1CCN(NC(=O)c2cccc3ccccc23)CC1,8,8,-0.8,5.8,2,13,-0.9,0.67,i
CCOc1ccc(-c2nc(=S)[nH][nH]2)cc1,x,x,x,1.0,-1,x,-0.3,0.78,x
COc1ccc(S(=O)(=O)N2CCOCC2)cc1NC(=O)CSc1nnc(N)s1,5,5,-2.8,-0.3,0,-4,0.1,0.65,i
Cc1cc(Nc2c(C)n(C)n(-c3ccccc3)c2=O)c2ccccc2n1,6,28,1.1,-2.0,-1,11,2.4,0.73,i
O=C(c1cc(-c2ccc(F)cc2)nc2ccccc12)N1CCN(C2CCS(=O)(=O)C2)CC1 (stereo unspecified),3,3,-0.5,-0.8,5,-1,-8.7,0.72,i
O=C(COC(=O)/C=C/c1ccc(F)cc1)Nc1nnc(-c2ccccc2)o1,3,3,-0.5,5.5,6,2,2.0,0.57,i
COc1cc(NC(=S)N2CCc3ccccc3C2)cc(OC)c1,7,4,2.6,1.9,10,x,-0.3,0.66,i
COc1cc2nc(N(CCCN(C)C)C(=O)c3ccc(S(=O)(=O)N4CCc5ccccc54)cc3)sc2cc1OC,-4,-4,7.6,6.5,12,-1,6.1,0.61,i
CC(CCc1ccccc1)NC(=O)c1cncc(Br)c1 (stereo unspecified),4,2,1.2,-0.3,-4,-1,19,0.69,x
CCCSc1cc(NCCOC(C)=O)c([N+](=O)[O-])c2nonc12,x,x,x,-0.6,-4,-16,8.0,0.68,x
Cc1cccn2c(=O)c3cc(C(=O)NC4CCCC4)c(=N)n(Cc4ccc(F)cc4)c3nc12,9,11,-5.7,5.8,103*,1,i,0.69,i
CCn1ccnc1CNC(=O)CC1C(=O)NCCN1Cc1ccc(F)cc1Cl (stereo unspecified),23,14,-0.5,-1.5,0,-6,-6.5,0.63,i
Cc1ccnc(N2C(=O)c3cccc4c([N+](=O)[O-])ccc(c34)C2=O)c1,70,1,1.8,-38,8,17,-60,0.67,i
Cc1csc(-c2cccnc2)n1,x,x,x,3.8,4,3,0.7,x,x
COc1ccccc1/C=C/C(=O)OCC(=O)N1c2ccccc2CC1C (stereo unspecified),0,2,0.4,-0.7,-5,-5,-15,0.67,i
O=C(O)c1ccc(CSc2nnc(-c3ccncc3)n2CC2CCCO2)cc1 (stereo unspecified),x,x,x,-3.3,4,4,0.9,0.72,x
CN(CCCNC(=O)C1CCC(=O)N1Cc1ccc(F)cc1)c1ccccc1 (stereo unspecified),-2,-1,5.6,0.3,2,99*,3.8,0.72,i
CC(C)c1nc(Cl)c(C#N)c2c1CSC(C)(C)C2,0,-9,-0.1,-3.0,0,-10,3.3,0.74,x
CCCc1c(C(=O)N/N=C/c2ccccc2C(F)(F)F)nnn1-c1nonc1N,8,9,1.5,1.5,-7,-3,x,x,i
O=C(CC(=O)c1ccccc1)Nc1ccc([N+](=O)[O-])cc1,-12,5,-0.3,-0.6,5,x,6.4,0.59,i
CCOC(=O)c1cn(C2CC2)c2c(F)c(NCCCN(C)C)c(F)cc2c1=O,-40,-75,-8.7,1.2,64*,0,-198,0.65,i
N/C(CC(=O)Nc1ccc(F)c(Cl)c1)=N\OC(=O)c1cccs1,x,x,x,0.8,4,4,1.0,0.64,i
Cc1onc(-c2ccccc2Cl)c1C(=O)Nc1cc(=O)n(C)c(=O)n1C,x,x,x,-4.6,3,-1,10,0.77,x
CN1CCN(C(=O)CCS(=O)(=O)c2cc3c(cc2Cl)NC(=O)CO3)CC1,13,7,2.1,1.6,6,7,3.3,0.74,i
CCOC(=O)/C=C1\NC(C)(C)Cc2cc(OC)c(OC)cc21,x,x,x,1.7,-2,10,-4.1,0.69,x
Cc1ccc(C(=O)Nc2ccc(OCc3ccccc3)cc2)cc1[N+](=O)[O-],x,x,x,2.1,0,-3,0.5,0.72,x
CCCn1c(SCC(=O)N2CCCC(C)C2)nnc1-c1cccnc1 (stereo unspecified),6,7,-0.8,2.4,0,-30,1.0,0.68,i
CCCc1ccc(S(=O)(=O)N/N=C(/C)c2ccc3c(c2)OCO3)cc1,0,9,4.2,-2.9,-2,12,x,x,i
O=Cc1c(Cl)cccc1Cl,4,4,1.6,-3.6,-3,19,2.3,0.67,i
O=C(Cc1cccs1)NNC(=O)C12CC3CC(CC(C3)C1)C2,1,-1,1.0,-0.6,-1,-9,0.0,0.66,i
CCCCC(=O)Nc1nnc(S(=O)(=O)N(CC)c2ccccc2)s1,15,10,-4.1,-1.8,-6,x,3.9,0.68,i
O=C(COc1ccc(-c2nnco2)cc1)N1CCN(S(=O)(=O)c2ccccc2)CC1,x,x,x,-0.5,4,-9,-1.2,0.76,x
CCOC(=O)C1=C[C@@H](c2ccccc2)N(S(=O)(=O)c2ccc(C)cc2)[C@H]1c1ccc(OC)cc1,23,28,1.6,1.3,x,x,x,x,i
Cc1ccc(Oc2nc3ccccc3n3c(C)nnc23)cc1,x,x,x,-2.9,-12,-19,0.0,0.7,x
CCOC(=O)C1CCCN(c2c(N3CCN(C4CCCCC4)CC3)c(=O)c2=O)C1 (stereo unspecified),6,-5,1.9,5.7,9,4,7.3,0.74,i
c1csc(-c2noc(CN3CCOCC3)n2)c1,23,14,4.9,2.3,-4,-10,3.1,0.66,i
C/C(=N\NC(=S)NCc1ccccc1)c1ccc(C)o1,0,-1,6.2,-2.8,-2,3,x,x,i
Cc1ccc(-n2c(=O)[nH]c3cc(C(=O)NC4CCN(Cc5ccccc5)CC4)ccc3c2=O)cc1,x,x,x,-0.4,-6,-4,0.7,0.72,x

# New compounds follow.
SMILES,rRNA inh HTS,rRNA inh HTS OD600,rRNA inh HTS RFP,HNF4A DNA FP,B2AR ag,ALR inh,UCH37 inh,Ecoli growth,FGF22 binding
Cc1cc(C2(O)C(=O)Nc3ccccc32)ccc1F (stereo unspecified),1,12,11,-3.0,4,x,3.0,0.68,i
O=C(CN1CCCCCC1)Nc1ccc(Cl)cn1,-7,0,-2.4,0.9,4,2,0.2,0.68,i
CC1=NN(c2ccc(Cl)cc2)C(=O)C1C(c1ccccc1O)c1c(C)[nH]n(-c2ccc(Cl)cc2)c1=O (stereo unspecified),x,x,x,-2.3,6,-2,6.1,0.6,x
COc1ccc(Br)cc1-c1nc2c(c(=O)[nH]c(=O)n2Cc2ccccc2)n1C,13,18,0.1,0.5,-4,-2,1.3,0.72,i
O=C(CN(CCc1ccccc1)C(=O)CNS(=O)(=O)c1ccccc1)NCC1CCCO1 (stereo unspecified),x,x,x,0.4,15,-1,2.1,0.71,x
O=C(CCNS(=O)(=O)c1cccc2nsnc12)NCCc1ccccc1,x,x,x,3.0,-4,-6,-62,0.73,x
C=CCSc1ncnc2sc(C)c(C)c12,2,5,0.0,-2.6,6,1,-1.2,0.71,i

# Screens (PubChem)

# Not all compounds are listed (hit frequency here may not be typical).
